UUG fidelity: yeast start codon fidelity modulation | S. cerevisiae UUG-firefly luciferase reporter, luminescence/redox ratio | activity score, % at 18.7 µM | actives 0.13% (n = 350,000);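 active means replicate mean at a twofold rise or more, about +100% in these data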;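 further: firefly luciferase made from a UUG start codon reports start codon fidelity; reporter light over untreated wells divided by growth signal over untreated wells; some hits fall short of that in this replicate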
MT1-MMP act inh: inhibitors of human MT1-MMP activation; HT1080 RFP-PRO-GFP cells, GFP/RFP ratio fluorescence, overnight; percent of plate control window, DMSO zero; GFP/RFP ratio change, % at 20 µM; actives 0.061% (n = 360,000); AID 651647;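 active means GFP/RFP ratio change of at least 30% with cell ATP level not reduced by more than half and red fluorescence within 50% of control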; further: strong numbers were not always called active
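system = RFP-PRO-GFP reporter HT1080 cells | dosing = 20 µM single dose, 1% DMSO | timing = overnight cell settling, then overnight compound exposure, 37 °C, 5% CO2 | read-out basis = GFP/RFP fluorescence ratio | controls = DMSO and RFP-L50D-GFP cell wells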
Rce1 inh: blocks yeast Ras-converting enzyme. AID 2563. Q03530. yeast membranes, quenched prenylated peptide cleavage fluorescence. calls only. actives 0.27% (n = 290,000);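 active means fall in fluorescence gain of 50% or more versus controls, with final raw signal at or below 3038400; inconclusive means same 50% fall but final raw signal above 3038400; inactive means fall in fluorescence gain under 50%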;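 further: plate controls were neutral control wells for no effect and wells lacking membranes for full effect; tested at 10 µM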
Target sequence (Q03530 whole entry, looked up): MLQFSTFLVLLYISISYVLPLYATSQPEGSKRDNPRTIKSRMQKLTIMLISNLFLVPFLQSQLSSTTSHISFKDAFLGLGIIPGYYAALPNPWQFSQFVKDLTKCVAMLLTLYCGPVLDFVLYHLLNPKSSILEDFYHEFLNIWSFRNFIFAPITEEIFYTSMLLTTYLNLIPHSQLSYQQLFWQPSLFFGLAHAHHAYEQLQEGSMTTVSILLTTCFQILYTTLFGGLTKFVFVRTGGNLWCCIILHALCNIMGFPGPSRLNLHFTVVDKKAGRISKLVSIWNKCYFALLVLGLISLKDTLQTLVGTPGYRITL
CSC inhib: blocks cancer stem cells; cancer stem cell-like cells viability, luminescence; inhibition, % at 7.5 µM; actives 1.1% (n = 300,000); AID 2717;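 active means mean at 75% or more and at least half the replicates too; inconclusive means mean and replicates disagree; tested in HMLE shEcad cells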;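 further: 0% = median of negative and 100% = median of positive control wells; the first replicate is given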
PABP FP inh: PABP-poly(A) binding inhibition; P11940; PABP-poly(A) RNA binding, fluorescence polarization; inhibition, % at 35 µM; actives 1% (n = 290,000); AID 2014;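 active means 50% or more with normal probe brightness, or confirmed in later tests; inconclusive means above 50% with abnormal brightness, or retests that disagree; inactive means below 50% or failed in later tests; about a fifth of its hits are not listed in these tables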;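 further: calls also rest on retests at 20 µM and on dose response follow-up; controls were probe without protein and protein plus probe with vehicle; some compounds called inactive have numbers as strong as hits; many hits fall short of the cut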
Env fusion inh: blocks HIV Env-driven cell-cell fusion; HeLa-JRFL Env/CEM21 cell fusion, luciferase; inhibition, % at 12.3 µM; actives 1.1% (n = 360,000); AID 651610;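 active means mean replicate inhibition score of at least 50 and every replicate individually at or above 50; inconclusive means only one of the two criteria met; inactive means mean below 50 and not all replicates reaching 50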;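 further: 0% = plate neutral controls and 100% = maraviroc near 300 nM; one replicate is shown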
eIF4H FP inh: inhibitors of RNA binding by human eIF4H; inhibition, % at 35 µM; AID 2012; actives 0.94% (n = 290,000); eIF4H fluorescence polarization binding assay;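 active means 50% or more with normal probe brightness, or confirmed in later tests; inconclusive means above 50% with abnormal brightness, or retests that disagree; inactive means below 50% or failed in later tests; about a fifth of its hits are not listed in these tables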;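 further: calls also rest on retests at 20 µM and on dose response follow-up; 0% = protein and probe with vehicle and 100% = probe without protein; strong numbers were not always called active; many hits fall short of the cut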
eIF4H FP inh retest: recorded beside eIF4H FP inh, whose call it bears; inhibition, %; compound at 20 µM; confirmation average;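 mean of two retest wells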
PABP FP inh retest: recorded beside PABP FP inh, whose call it bears; inhibition, %; compound at 20 µM; confirmation repeats;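 mean of two retest wells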
MT1-MMP act inh RFP: second read-out of MT1-MMP act inh, no call of its own (marks repeat the call); RFP signal change, %; measured here: RFP expression control read;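 0 = vehicle wells; hits needed this value within 50% of zero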
Numbers without * were called inactive.

Screening O=C(NC(=S)Nc1cccc2[nH]ncc12)c1ccccc1 returned UUG fidelity -8, MT1-MMP act inh -16, Rce1 inh inactive, CSC inhib -7, PABP FP inh -3, Env fusion inh 4, eIF4H FP inh 1 and MT1-MMP act inh RFP -13.
N=C(c1cccc([N+](=O)[O-])c1)N1CCCCCC1 was read as MT1-MMP act inh 2, Rce1 inh inactive, CSC inhib 15, PABP FP inh -7, Env fusion inh -8, eIF4H FP inh -5 and MT1-MMP act inh RFP 4.
For Clc1ccc(-c2cnn3c(-c4ccncc4)ccnc23)cc1 the results were MT1-MMP act inh -1, CSC inhib -5, PABP FP inh -5, Env fusion inh -183, eIF4H FP inh 1 and MT1-MMP act inh RFP -6.
`Nc1cc(C(F)(F)F)cc2c1SCC(=O)N2` gave UUG fidelity 58, MT1-MMP act inh -2, Rce1 inh inactive, CSC inhib -5, PABP FP inh -2, Env fusion inh -43, eIF4H FP inh 9 and MT1-MMP act inh RFP 0.
For COc1ccccc1Cc1c(-c2cccc(Cl)c2)nc2ccc(C)cn12 the results were UUG fidelity -8, MT1-MMP act inh 0, Env fusion inh -21 and MT1-MMP act inh RFP -10.
For COC(=O)C1SCCN1S(=O)(=O)c1ccc(Cl)cc1 (centres undefined) the results were UUG fidelity -14, MT1-MMP act inh -2, Rce1 inh inactive, CSC inhib 16, Env fusion inh 0 and MT1-MMP act inh RFP 1.
For CCn1c(CSc2nnc3ccccn23)nc2cc(C(=O)O)ccc21 the results were UUG fidelity -27, MT1-MMP act inh 42*, Rce1 inh inactive, CSC inhib 0, PABP FP inh 128*, Env fusion inh -59, eIF4H FP inh 129*, eIF4H FP inh retest 56*, PABP FP inh retest 62* and MT1-MMP act inh RFP 44*.
`COc1ccc(/C=C/CN2CCCC(CCC(=O)NCc3ccc(F)c(F)c3)C2)cc1` (centres undefined) gave MT1-MMP act inh -8, Rce1 inh inactive, CSC inhib -2, PABP FP inh -5, Env fusion inh -4, eIF4H FP inh 7 and MT1-MMP act inh RFP -2.
COC(=O)Nc1ccc(S(=O)(=O)N2CCCC(C(=O)Nc3cccnc3)C2)cc1 (centres undefined) was read as UUG fidelity -9, MT1-MMP act inh 2, Rce1 inh inactive, CSC inhib -8, PABP FP inh 4, Env fusion inh 33, eIF4H FP inh 2 and MT1-MMP act inh RFP -2.
`O=c1ccc(-c2ccccc2)no1` gave MT1-MMP act inh -1, Rce1 inh inactive, CSC inhib -12, PABP FP inh 6, Env fusion inh 0, eIF4H FP inh 0 and MT1-MMP act inh RFP 2.
Screening O=C(C1CC(=O)N(c2ccc(F)cc2)C1)N1CCC(c2nc3ccccc3[nH]2)CC1 (centres undefined) returned MT1-MMP act inh 3, Rce1 inh inactive, CSC inhib 6, Env fusion inh 7 and MT1-MMP act inh RFP -6.
CC/C(=C\C(=O)c1ccncc1)Nc1ccc(O)cc1 was read as UUG fidelity -14, MT1-MMP act inh -6, Rce1 inh inactive, CSC inhib 2, PABP FP inh 4, eIF4H FP inh 8 and MT1-MMP act inh RFP -10.
`CC(=O)N(C)c1ccc(NC(=O)Cc2cccs2)cc1` gave UUG fidelity -64, MT1-MMP act inh 1, Rce1 inh inactive, CSC inhib -11, PABP FP inh 7, Env fusion inh -6, eIF4H FP inh 7 and MT1-MMP act inh RFP 1.
`COc1ccc(NC(=O)C2=CC(c3ccc(OC)c(OC)c3)=NS(=O)(=O)N2C)cc1` gave UUG fidelity 0, MT1-MMP act inh 4, Rce1 inh inactive, PABP FP inh -2, eIF4H FP inh 2 and MT1-MMP act inh RFP -24.
`Cc1ccc(O)c(N=Cc2ccc(C)s2)c1` gave MT1-MMP act inh 3, Rce1 inh inactive, CSC inhib -2, PABP FP inh -1, Env fusion inh 3, eIF4H FP inh 4 and MT1-MMP act inh RFP 10.
For c1ccc(-c2cnn3c(-c4ccccc4)c(-c4ccccc4)nc3n2)cc1 the results were MT1-MMP act inh -105, PABP FP inh 7, Env fusion inh -35, eIF4H FP inh inconclusive and MT1-MMP act inh RFP 4.
Screening O=C(NCCN1CCOCC1)c1ccc(Cl)c(S(=O)(=O)N2CCCCCC2)c1 returned UUG fidelity 7, MT1-MMP act inh 1, Rce1 inh inactive, CSC inhib -3, PABP FP inh -14, eIF4H FP inh 3 and MT1-MMP act inh RFP -11.
`COc1ccc(/C=C2\SC(N3CCc4ccccc4C3)=NC2=O)cc1OC` gave MT1-MMP act inh -2, Rce1 inh inactive, CSC inhib -3, PABP FP inh -8, Env fusion inh 8, eIF4H FP inh -5 and MT1-MMP act inh RFP -1.
COc1ccc(Nc2nc(CN3CCOCC3)nc3sc4c(c23)CCC(C)C4)cc1OC (centres undefined) was read as Rce1 inh inactive, CSC inhib 7, PABP FP inh 1 and eIF4H FP inh -4.
For CC(C)(C)n1nnnc1C(c1ccc2ncccc2c1)N1CCC(O)CC1 (centres undefined) the results were UUG fidelity -16, MT1-MMP act inh -1, Rce1 inh inactive, CSC inhib -4, PABP FP inh 1, Env fusion inh -2, eIF4H FP inh -3 and MT1-MMP act inh RFP 4.
For O=C(c1ccccc1)C(CCC(CN1CCOCC1)C(=O)c1ccccc1)CN1CCOCC1 (centres undefined) the results were UUG fidelity -45, MT1-MMP act inh -3, Rce1 inh inactive, CSC inhib 31, PABP FP inh 8, eIF4H FP inh -5 and MT1-MMP act inh RFP -12.
Cc1cn([C@H]2C[C@H](O)[C@@H](CNCc3cc(Br)ccc3OCc3ccccc3)O2)c(=O)[nH]c1=O was read as UUG fidelity 5, MT1-MMP act inh -1, Env fusion inh -136 and MT1-MMP act inh RFP -1.
`CCNC(=O)C1(C)CCN1C(=O)CCc1cccc(Cl)c1` (centres undefined) gave UUG fidelity -5, MT1-MMP act inh -2, Env fusion inh 9 and MT1-MMP act inh RFP 2.
Screening O=c1c2cc(NC(=S)N3CCC(N4CCCCC4)CC3)ccc2nc2n1CCCCC2 returned MT1-MMP act inh 6, Rce1 inh inactive, CSC inhib -10, PABP FP inh 1, Env fusion inh -6, eIF4H FP inh -19 and MT1-MMP act inh RFP 4.
For Cc1cc(C)cc(-n2nnc(C(=O)NCc3ccccc3)c2N)c1 the results were UUG fidelity -3, MT1-MMP act inh -2, Rce1 inh inactive, CSC inhib -6, PABP FP inh -2, Env fusion inh -15, eIF4H FP inh -5 and MT1-MMP act inh RFP -7.
CCC(=O)OCC(=O)N=c1sccn1Cc1ccc(C)cc1 was read as UUG fidelity -29, MT1-MMP act inh 0, Rce1 inh inactive, CSC inhib -16, PABP FP inh 0, Env fusion inh -7, eIF4H FP inh -2 and MT1-MMP act inh RFP 0.
For O=C(Nc1ccc(-c2ccco2)cc1)C1CCCN(Cc2ccc(CO)o2)C1 (centres undefined) the results were UUG fidelity 6, MT1-MMP act inh 0, Rce1 inh inactive, CSC inhib -4, PABP FP inh -32, Env fusion inh -11, eIF4H FP inh -12 and MT1-MMP act inh RFP 5.
For c1ccc(-c2nccc(-c3ccc4c(c3)OCO4)n2)cc1 the results were UUG fidelity -1, MT1-MMP act inh -2, Rce1 inh inactive, PABP FP inh 11, Env fusion inh -18, eIF4H FP inh -11 and MT1-MMP act inh RFP 1.
CCn1nc2cc(C(=O)NCc3cc(C(F)(F)F)cc(C(F)(F)F)c3)ccc2c1OC was read as UUG fidelity -12, MT1-MMP act inh 3, Rce1 inh inactive, CSC inhib 51, PABP FP inh 1, Env fusion inh -15, eIF4H FP inh -8 and MT1-MMP act inh RFP -1.
Cc1cc(-c2ccccc2C(=O)Nc2ccccc2O)on1 was read as MT1-MMP act inh 0, Rce1 inh inactive, CSC inhib -6, PABP FP inh -3, Env fusion inh -5, eIF4H FP inh -6 and MT1-MMP act inh RFP 1.

Sorted by number of heavy atoms (largest number first): some entries from above.
CCn1nc2cc(C(=O)NCc3cc(C(F)(F)F)cc(C(F)(F)F)c3)ccc2c1OC was read as UUG fidelity -12, MT1-MMP act inh 3, Rce1 inh inactive, CSC inhib 51, PABP FP inh 1, Env fusion inh -15, eIF4H FP inh -8 and MT1-MMP act inh RFP -1.
For Cc1cc(C)cc(-n2nnc(C(=O)NCc3ccccc3)c2N)c1 the results were UUG fidelity -3, MT1-MMP act inh -2, Rce1 inh inactive, CSC inhib -6, PABP FP inh -2, Env fusion inh -15, eIF4H FP inh -5 and MT1-MMP act inh RFP -7.
Cc1cc(-c2ccccc2C(=O)Nc2ccccc2O)on1 was read as MT1-MMP act inh 0, Rce1 inh inactive, CSC inhib -6, PABP FP inh -3, Env fusion inh -5, eIF4H FP inh -6 and MT1-MMP act inh RFP 1.
`CCNC(=O)C1(C)CCN1C(=O)CCc1cccc(Cl)c1` (centres undefined) gave UUG fidelity -5, MT1-MMP act inh -2, Env fusion inh 9 and MT1-MMP act inh RFP 2.

Quoted at random: 3 records from the list
COc1ccc(Nc2nc(CN3CCOCC3)nc3sc4c(c23)CCC(C)C4)cc1OC (centres undefined) was read as Rce1 inh inactive, CSC inhib 7, PABP FP inh 1 and eIF4H FP inh -4.
For CC(C)(C)n1nnnc1C(c1ccc2ncccc2c1)N1CCC(O)CC1 (centres undefined) the results were UUG fidelity -16, MT1-MMP act inh -1, Rce1 inh inactive, CSC inhib -4, PABP FP inh 1, Env fusion inh -2, eIF4H FP inh -3 and MT1-MMP act inh RFP 4.
Screening O=C(NC(=S)Nc1cccc2[nH]ncc12)c1ccccc1 returned UUG fidelity -8, MT1-MMP act inh -16, Rce1 inh inactive, CSC inhib -7, PABP FP inh -3, Env fusion inh 4, eIF4H FP inh 1 and MT1-MMP act inh RFP -13.

Going on with the list.
Screening Cc1ccc(NC(=O)C2CCN(C(=O)NC3CCCCC3)CC2)c(C)c1 returned UUG fidelity -6, MT1-MMP act inh -1, CSC inhib 6, PABP FP inh -8, Env fusion inh -47, eIF4H FP inh -4 and MT1-MMP act inh RFP 0.
For CC(=O)Nc1ccc(S(=O)(=O)Nc2cc(C)cn(Cc3ccc(C)cc3)c2=O)cc1 the results were UUG fidelity -14, MT1-MMP act inh 0, Rce1 inh inactive, CSC inhib 14, PABP FP inh 2, Env fusion inh -8, eIF4H FP inh -8 and MT1-MMP act inh RFP -5.
`O=C(c1c(F)cccc1F)N1CCCC(c2nc(-c3ccc(Cl)cc3)no2)C1` (centres undefined) gave UUG fidelity 10, MT1-MMP act inh 2, Rce1 inh inactive, CSC inhib -3, PABP FP inh 0, Env fusion inh 10, eIF4H FP inh -11 and MT1-MMP act inh RFP -14.
For OC(CCN1CCCCC1)c1ccc(-c2ccccc2)cc1 (centres undefined) the results were UUG fidelity -12, MT1-MMP act inh 3, Rce1 inh inactive, CSC inhib 35, PABP FP inh 1, Env fusion inh -11, eIF4H FP inh -3 and MT1-MMP act inh RFP 0.

Source: PubChem BioAssay

The list is partial. The share of hits here may be higher or lower than overall.
